Rce1 inhib: yeast Ras-converting enzyme inhibition; AID 2563; hit rate 0.27% among 290,000; yeast membranes, quenched prenylated peptide cleavage fluorescence; calls only; Q03530;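 active = fall in fluorescence gain of 50% or more versus controls, with final raw signal at or below 3038400; inconclusive = same 50% fall but final raw signal above 3038400; inactive = fall in fluorescence gain under 50%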;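 also: plate controls were neutral control wells for no effect and wells lacking membranes for full effect; tested at 10 µM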
Target sequence (Q03530 whole entry, looked up): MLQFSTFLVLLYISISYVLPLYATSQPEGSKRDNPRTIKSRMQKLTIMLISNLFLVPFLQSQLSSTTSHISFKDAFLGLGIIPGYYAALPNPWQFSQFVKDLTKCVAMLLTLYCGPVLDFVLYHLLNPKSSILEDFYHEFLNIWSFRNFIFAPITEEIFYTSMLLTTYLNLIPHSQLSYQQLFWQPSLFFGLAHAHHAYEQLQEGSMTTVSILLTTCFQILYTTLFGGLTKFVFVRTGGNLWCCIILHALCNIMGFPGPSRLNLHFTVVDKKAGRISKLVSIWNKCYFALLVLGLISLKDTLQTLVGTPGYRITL
MT1-MMP act inh: inhibitors of human MT1-MMP activation. HT1080 RFP-PRO-GFP cells, GFP/RFP ratio fluorescence, overnight; percent of plate control window, DMSO zero. GFP/RFP ratio change, % at 20 µM. hit rate 0.061% among 360,000. AID 651647;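 active = GFP/RFP ratio change of at least 30% with cell ATP level not reduced by more than half and red fluorescence within 50% of control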; also: strong numbers were not always called active
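Assay system: RFP-PRO-GFP reporter HT1080 cells; read-out basis: GFP/RFP fluorescence ratio; benchmarks: DMSO wells and RFP-L50D-GFP cells; doses: 20 µM single dose, 1% DMSO; schedule: overnight cell settling, then overnight compound exposure, 37 °C, 5% CO2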
eIF4H FP inh: inhibitors of RNA binding by human eIF4H. Q15056. eIF4H fluorescence polarization binding assay. inhibition, % at 35 µM. hit rate 0.94% among 290,000. AID 2012;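 active = 50% or more with normal probe brightness, or confirmed in later tests; inconclusive = above 50% with abnormal brightness, or retests that disagree; inactive = below 50% or failed in later tests; about a fifth of its hits are not listed in these tables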;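 also: calls also rest on retests at 20 µM and on dose response follow-up; 0% = protein and probe with vehicle and 100% = probe without protein; strong numbers were not always called active; many hits fall short of the cut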
UUG fidelity: yeast start codon fidelity modulation. activity score, % at 18.7 µM. hit rate 0.13% among 350,000. S. cerevisiae UUG-firefly luciferase reporter, luminescence/redox ratio. AID 602363;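 active = replicate mean at a twofold rise or more, about +100% in these data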;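 also: firefly luciferase made from a UUG start codon reports start codon fidelity; reporter light over untreated wells divided by growth signal over untreated wells; some hits fall short of that in this replicate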
CSC inhib: blocks cancer stem cells | cancer stem cell-like cells viability, luminescence | inhibition, % at 7.5 µM | hit rate 1.1% among 300,000;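 active = mean at 75% or more and at least half the replicates too; inconclusive = mean and replicates disagree; tested in HMLE shEcad cells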;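 also: 0% = median of negative and 100% = median of positive control wells; the first replicate is given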
PABP polyA inh: blocks human PABP binding to poly(A) RNA. fluorescence polarization. inhibition, % at 35 µM. hit rate 1% among 290,000;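 active = 50% or more with normal probe brightness, or confirmed in later tests; inconclusive = above 50% with abnormal brightness, or retests that disagree; inactive = below 50% or failed in later tests; about a fifth of its hits are not listed in these tables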;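 also: calls also rest on retests at 20 µM and on dose response follow-up; controls were probe without protein and protein plus probe with vehicle; some compounds called inactive have numbers as strong as hits; many hits fall short of the cut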
Target sequence (P11940 whole entry, looked up): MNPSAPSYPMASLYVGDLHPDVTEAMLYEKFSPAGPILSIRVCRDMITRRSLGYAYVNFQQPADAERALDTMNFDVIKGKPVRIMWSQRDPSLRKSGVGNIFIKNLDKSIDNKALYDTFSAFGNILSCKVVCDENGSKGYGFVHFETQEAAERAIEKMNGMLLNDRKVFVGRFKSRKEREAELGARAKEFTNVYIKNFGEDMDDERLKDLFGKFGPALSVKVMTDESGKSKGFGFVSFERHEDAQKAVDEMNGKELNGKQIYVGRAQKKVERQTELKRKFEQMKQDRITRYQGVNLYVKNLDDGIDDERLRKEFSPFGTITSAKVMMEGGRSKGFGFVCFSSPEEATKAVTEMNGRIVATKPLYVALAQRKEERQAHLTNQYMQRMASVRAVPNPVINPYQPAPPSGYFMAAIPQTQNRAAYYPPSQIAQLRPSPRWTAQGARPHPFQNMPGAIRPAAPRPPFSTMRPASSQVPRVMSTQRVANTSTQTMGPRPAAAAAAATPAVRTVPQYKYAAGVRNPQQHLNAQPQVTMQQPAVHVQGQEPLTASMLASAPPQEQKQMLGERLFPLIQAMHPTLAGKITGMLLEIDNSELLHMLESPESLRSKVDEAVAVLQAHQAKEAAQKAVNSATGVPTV
Env fusion inh: inhibitors of HIV Env-mediated cell fusion | hit rate 1.1% among 360,000 | inhibition, % at 12.3 µM | HeLa-JRFL Env/CEM21 cell fusion, luciferase | AID 651610;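 active = mean replicate inhibition score of at least 50 and every replicate individually at or above 50; inconclusive = only one of the two criteria met; inactive = mean below 50 and not all replicates reaching 50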;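 also: 0% = plate neutral controls and 100% = maraviroc near 300 nM; one replicate is shown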
eIF4H FP inh retest: also measured in eIF4H FP inh; calls as there; inhibition, %; compound at 20 µM; confirmation average;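 mean of two retest wells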
PABP polyA inh retest: also measured in PABP polyA inh; calls as there; inhibition, %; compound at 20 µM; confirmation repeats;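 mean of two retest wells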
MT1-MMP act inh RFP: further read-out of MT1-MMP act inh, marked with its call; RFP signal change, %; measured here: RFP expression control read;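 0 = vehicle wells; hits needed this value within 50% of zero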
Starred values were filed as active, the others as inactive; i = inactive; ? = inconclusive; / = not tested or not shown.

SMILES	Rce1 inhib	MT1-MMP act inh	MT1-MMP act inh RFP	eIF4H FP inh	UUG fidelity	CSC inhib	PABP polyA inh	Env fusion inh	others
C/C(=N\NC(=O)c1cc(O)ccc1O)c1cccc(NC(=O)c2cccc(Cl)c2)c1	i	0	5	85*	-8	-8	29*	-38	eIF4H FP inh retest=88*;PABP polyA inh retest=91*
O=C(CSc1nc2c(cnn2-c2ccc(F)cc2)c(=O)[nH]1)N1CCCCCC1	i	6	-3	-10	-5	-2	-16	11
C[C@@H]1C(=O)O[C@H]2CC34[C@H]5C[C@@H](C(C)(C)C)[C@]36[C@@H](OC(=O)[C@@H]6O)O[C@@]4(C(=O)O5)[C@]21O (stereo partly drawn)	/	3	4	/	-8	-6	/	-48
O=C(O)c1ccc(N/N=C/c2ccncc2)cc1	i	1	0	6	/	-9	-3	-5
O=C(OC(C(=O)Nc1cc(Cl)cc(Cl)c1)c1ccccc1)C1=COCCO1 (stereo not drawn)	i	0	-1	-4	/	16	-4	/
COc1cc(Br)cc(/C=N/NC(=O)Cc2ccccc2)c1O	i	3	3	/	/	10	/	8
O=C(NCCN1CCOCC1)c1ccc2c(c1)N(Cc1ccc(F)cc1)C(=O)CS2	i	-2	4	-1	-3	-8	16	-5
CCOC(=O)N1CCN(C(=O)c2cn(CC)c3ccc(S(=O)(=O)N(C)C4CCCCC4)cc3c2=O)CC1	i	-2	3	-16	-11	-1	-4	1
Nc1nnc(SCn2nnc3ccccc3c2=O)s1	/	0	1	-10	/	-12	0	14
CC(C)(C)NC(=O)CN(C(=O)c1snc(C(=O)NC2CCCCC2)c1N)c1ccccc1F	i	-13	-14	0	-13	1	-5	11
Cc1nn(-c2ccccc2)c2c1C1(C(=O)N(C)c3ccccc31)C(C#N)=C(N)O2 (stereo not drawn)	i	7	6	-4	/	-9	1	28
COc1cccc(CN2CCNC(=O)C2CC(=O)NCCn2ccc3ccccc32)c1OC (stereo not drawn)	i	-3	2	-9	/	-14	-2	14
CNc1ccccc1-n1ccc(-c2ccccc2)n1	i	-6	-11	2	-10	6	1	/
O=C(C1CCN(Cc2ccc(Cl)cc2)CC1)N1CCN(C(c2ccccc2)c2ccccc2)CC1	i	-8	-7	10	/	64	5	14
Cc1cccc(C)c1OCc1nc2ccccc2c(=O)n1/N=C/c1c[nH]c2ccccc12	i	1	0	3	/	23	12	6
c1ccc2c(N3CCCCC3)nc(N3CCCCC3)nc2c1	i	6	0	0	-15	-3	-8	-15
Cc1nn(Cc2ccccc2)c(Cl)c1C(=O)OCc1nnc(-c2ccc(Cl)cc2)o1	i	1	1	-9	1	-14	2	/
Nc1nc(SCC(=O)Nc2ccc([N+](=O)[O-])cc2)n[nH]1	i	-1	-5	-3	/	-2	-1	-3
CS(=O)(=O)N1CCC(C(=O)Nc2cccc([N+](=O)[O-])c2)CC1	i	1	3	1	-24	2	2	21
CCc1ccc(C(=O)NNc2cc(Cl)cc(Cl)c2)cc1	i	2	6	-2	-8	20	7	6

The closing four entries of the section above open the next one:
SMILES	Rce1 inhib	MT1-MMP act inh	MT1-MMP act inh RFP	eIF4H FP inh	UUG fidelity	CSC inhib	PABP polyA inh	Env fusion inh	others
Cc1nn(Cc2ccccc2)c(Cl)c1C(=O)OCc1nnc(-c2ccc(Cl)cc2)o1	i	1	1	-9	1	-14	2	/
Nc1nc(SCC(=O)Nc2ccc([N+](=O)[O-])cc2)n[nH]1	i	-1	-5	-3	/	-2	-1	-3
CS(=O)(=O)N1CCC(C(=O)Nc2cccc([N+](=O)[O-])c2)CC1	i	1	3	1	-24	2	2	21
CCc1ccc(C(=O)NNc2cc(Cl)cc(Cl)c2)cc1	i	2	6	-2	-8	20	7	6
O=C1NC(c2ccc(Cl)cc2)Nc2ccccc21 (stereo not drawn)	i	-2	2	-6	/	14	-10	-2
C=C(C)c1cccc(C(C)(C)NC(=O)N2CCN(c3ccccc3OC)CC2)c1	i	0	2	-5	/	12	-18	/
Cc1sc2c(c1C)C(=O)NC(c1ccccc1F)N2 (stereo not drawn)	i	-7	2	20	/	-9	21	-5
Cn1c(=O)[nH]c(=O)c2c1nc(Br)n2CCCO	i	12	4	-6	-3	-1	20	-14
COc1ccc(NC(=S)N2CCC(N(C)CCN3CCOCC3)CC2)cc1	i	4	6	3	/	-13	4	-12
COc1ccc(S(=O)(=O)N2CCC(C(N)=O)(N3CCCCC3)CC2)cc1OC	i	1	4	-1	-3	7	5	-2
Cc1cccc(NC(=O)CN(C)CC(=O)NC(c2ccccc2)c2ccccc2)c1C	/	1	3	/	-7	14	/	9
COc1ccccc1/C=C/C(=O)OCc1nc2ccccc2c(=O)[nH]1	i	-1	4	-2	/	-13	14	-9
c1ccc2c(CN3CCSCC3)cccc2c1	i	0	5	9	-30	-3	5	3
COC(=O)N1C/C=C\C(c2ccc(OC)cc2)N(Cc2ccc(F)cc2)C(=O)C1 (stereo not drawn)	i	2	4	-8	-14	-29	-3	-1

3 neighbouring compounds from above, for reference:
SMILES	Rce1 inhib	MT1-MMP act inh	MT1-MMP act inh RFP	eIF4H FP inh	UUG fidelity	CSC inhib	PABP polyA inh	Env fusion inh	others
C/C(=N\NC(=O)c1cc(O)ccc1O)c1cccc(NC(=O)c2cccc(Cl)c2)c1	i	0	5	85*	-8	-8	29*	-38	eIF4H FP inh retest=88*;PABP polyA inh retest=91*
O=C(CSc1nc2c(cnn2-c2ccc(F)cc2)c(=O)[nH]1)N1CCCCCC1	i	6	-3	-10	-5	-2	-16	11
C[C@@H]1C(=O)O[C@H]2CC34[C@H]5C[C@@H](C(C)(C)C)[C@]36[C@@H](OC(=O)[C@@H]6O)O[C@@]4(C(=O)O5)[C@]21O (stereo partly drawn)	/	3	4	/	-8	-6	/	-48

New compounds follow:
SMILES	Rce1 inhib	MT1-MMP act inh	MT1-MMP act inh RFP	eIF4H FP inh	UUG fidelity	CSC inhib	PABP polyA inh	Env fusion inh	others
Cc1cccc(NC(=O)CNC(=O)CSc2nnc(C(F)(F)F)n2C)c1C	/	3	3	/	-13	3	/	/
O=C(NCCN1CCc2ccccc2C1)Nc1ccc([N+](=O)[O-])cc1	i	4	-4	-4	-4	-1	5	12
CCC(C)NC(=S)NNC(=O)c1ccncc1 (stereo not drawn)	i	-5	-8	3	/	-1	5	4
CCCCn1c(N)c(N(CC)C(=O)c2cnc(C)cn2)c(=O)[nH]c1=O	/	2	3	/	/	-13	/	-2
c1ccc(CNCC2COc3ccccc3O2)cc1 (stereo not drawn)	i	1	3	7	-20	-5	-1	-54
CCn1c(N2CCN(C(=O)NC3CCCCC3)CC2)nc2ccccc21	i	6	0	-4	-5	-9	-6	-21
Cc1cc(NC(=O)c2ccc3c(c2)OCCO3)no1	i	-3	-1	5	-68	-15	0	/
COC(=O)c1ccc[n+](CCc2c[nH]c3ccccc23)c1	i	1	-1	/	-7	-8	/	/
CCOC(=O)c1sc(N)c(C#N)c1CSc1nnc(C2CCCCC2)n1N	i	-3	9	35	-2	-5	9	-29
FC(F)(F)c1ccc(N/N=C/c2cccnc2)nc1	i	-6	-7	7	-13	1	1	-22
COc1ccc(NC(=O)CSc2c3c(nc4cc(Cl)ccc24)CCCC3)cc1OC	i	3	-5	-3	/	29	5	/
CCn1c(=O)c(C(=O)NCc2ccc(OC)cc2)c(O)c2ccccc21	i	1	1	2	/	0	-3	/
COc1ccccc1CNC(=O)c1ccc(CS(=O)(=O)c2ccc(C)cc2)o1	i	1	4	46	-5	3	19	8
O=C(CSc1ncccn1)NC(=O)Nc1ccc2c(c1)OCCO2	i	1	3	-1	-24	15	-8	-14
O=C(NCc1ccco1)c1ccc2nc3sc4c(c3c(=O)n2c1)CCCC4	i	/	/	1	/	-8	22	/
Cc1cccc(NC(=O)NNC(=O)c2c(Cl)c(C)nn2C)c1	i	6	2	4	1	-4	6	7
Cc1ccc(C)c(NC(=O)CSc2nnc(CSc3nc(C)cc(C)n3)n2Cc2ccco2)c1	i	-3	3	-1	-7	0	14	6
O=C(NCC(c1ccco1)N1CCCCC1)c1ccc(COc2ccc(Cl)cc2)cc1 (stereo not drawn)	/	0	-14	/	-10	/	/	2
CC(=O)Nc1c(O)nc(SCC(=O)Nc2cccc(C)c2)[nH]c1=O	i	0	1	-5	-11	-10	-7	-18
COc1ccc(CC(=O)NC(C)c2nnc(SCCC(=O)Nc3ccccc3)n2C)cc1 (stereo not drawn)	i	0	3	-3	-5	-4	19	2

Random excerpt: 5 compounds from above.
SMILES	Rce1 inhib	MT1-MMP act inh	MT1-MMP act inh RFP	eIF4H FP inh	UUG fidelity	CSC inhib	PABP polyA inh	Env fusion inh	others
O=C(CSc1ncccn1)NC(=O)Nc1ccc2c(c1)OCCO2	i	1	3	-1	-24	15	-8	-14
Cc1cccc(NC(=O)NNC(=O)c2c(Cl)c(C)nn2C)c1	i	6	2	4	1	-4	6	7
COc1ccc(CC(=O)NC(C)c2nnc(SCCC(=O)Nc3ccccc3)n2C)cc1 (stereo not drawn)	i	0	3	-3	-5	-4	19	2
Cc1ccc(C)c(NC(=O)CSc2nnc(CSc3nc(C)cc(C)n3)n2Cc2ccco2)c1	i	-3	3	-1	-7	0	14	6
COc1ccc(NC(=O)CSc2c3c(nc4cc(Cl)ccc24)CCCC3)cc1OC	i	3	-5	-3	/	29	5	/

(cont.)
SMILES	Rce1 inhib	MT1-MMP act inh	MT1-MMP act inh RFP	eIF4H FP inh	UUG fidelity	CSC inhib	PABP polyA inh	Env fusion inh	others
Cc1cc(OCCCCCNCCO)ccc1Cl	i	3	-2	7	-8	35	-9	27
CCOC(=O)N1CCN(C(=O)CSCc2ccccc2C)CC1	i	-2	-1	-7	-11	-11	3	/
COC(=O)[C@@H](Cc1ccccc1)NC(=O)NCCc1ccccc1	i	-10	-4	-8	-7	-5	-3	4
O=C(CCC1CCCC1)N1CCC(N2CCCCCC2)CC1	i	0	1	-4	/	44	-6	-22
Cc1ccccc1NC1=C/C(=N\S(=O)(=O)c2cccs2)c2ccccc2C1=O	i	-3	-35	-11	-16	-8	0	121*
CCn1c(/C=C\c2ccccc2C)nc2ccccc2c1=O	/	-3	1	-3	-9	1	1	-2
O=C(O)COc1ccccc1/C=N/NC(=O)CNC(=O)c1ccc(F)cc1	i	3	6	7	-6	0	2	-27
O=C(NCCCc1ccccc1)c1cccc(Br)c1	/	-2	-3	/	-7	8	/	-4
O=C(O)C1CC(=O)N(c2ccc(OCc3ccc(Br)cc3)cc2)C1 (stereo not drawn)	i	1	1	-9	3	-11	-3	-8
Nc1ccc(C(=O)Oc2ccc([N+](=O)[O-])cc2)c(O)c1	i	/	/	17	/	-10	16	/
Cc1ccc(CS(=O)Cc2ccc(C(=O)NC3CCCCCC3)o2)cc1 (stereo not drawn)	i	4	1	-1	2	-5	-4	5
Cc1cc(=O)n2nc(N3CCC(C(=O)NCc4ccc(Cl)cc4)CC3)sc2n1	i	5	-1	4	3	-22	7	12
CNNCc1ccc(C(=O)NC(C)C)cc1	i	3	1	/	-8	-6	/	4
CCOC(=O)N1CCN(c2c(N3CCC(N4CCCCC4)CC3)c(=O)c2=O)CC1	i	-1	3	-5	-8	-1	-3	5
O=C(CSc1nnc(CSc2nc3ccccc3s2)o1)NC1CCCCC1	i	-1	-4	-6	-10	2	-7	/
CCN(CC)CCNC(=O)Cn1cnc2sc(C)c(S(=O)(=O)N3CCOCC3)c2c1=O	i	6	3	-1	-2	-8	40	-11
O=C1C=C(c2cccc3c2oc2ccccc23)CCC1	i	-4	0	/	7	12	/	?
NC(=S)NN=C1CCSCC1	/	-4	1	/	-33	/	/	-14
CN(C)/C=N/c1ncc(C(=O)c2ccccc2)s1	i	4	-2	8	-17	-12	-3	-134
